Screens as filed in PubChem BioAssay.
CSC inhib – cancer stem cell viability inhibitors, primary screen, luminescence | AID 2717, 2010 | cancer stem cell-like cells viability | inhibition, % at 7.5 µM | 300,000 tested, 1.1% active;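 active means mean at 75% or more and at least half the replicates too; tested in HMLE shEcad cells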;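 further: 0% = median of negative and 100% = median of positive control wells; the first replicate is given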
Env fusion inh – inhibitors of HIV-1 Env-driven cell-cell fusion, primary screen, HeLa-JRFL effector, CEM21 target cells, luciferase; AID 651610, 2012; inhibition, % at 12.3 µM; 360,000 tested, 1.1% active;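 active means mean replicate inhibition score of at least 50 and every replicate individually at or above 50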;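 further: 0% = plate neutral controls and 100% = maraviroc near 300 nM; one replicate is shown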
Rce1 inhib – yeast Rce1p protease inhibitors, primary screen, biochemical, fluorescence, cell-free homogeneous | 290,000 tested, 0.27% active | CAAX prenyl protease 2 (Saccharomyces cerevisiae (strain ATCC 204508 / S288c)), Q03530 | calls only | AID 2563, 2010 | yeast membranes, quenched prenylated peptide cleavage fluorescence;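 active means fall in fluorescence gain of 50% or more versus controls, with final raw signal at or below 3038400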;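 further: plate controls were neutral control wells for no effect and wells lacking membranes for full effect; tested at 10 µM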
Target sequence (Q03530 whole entry, looked up): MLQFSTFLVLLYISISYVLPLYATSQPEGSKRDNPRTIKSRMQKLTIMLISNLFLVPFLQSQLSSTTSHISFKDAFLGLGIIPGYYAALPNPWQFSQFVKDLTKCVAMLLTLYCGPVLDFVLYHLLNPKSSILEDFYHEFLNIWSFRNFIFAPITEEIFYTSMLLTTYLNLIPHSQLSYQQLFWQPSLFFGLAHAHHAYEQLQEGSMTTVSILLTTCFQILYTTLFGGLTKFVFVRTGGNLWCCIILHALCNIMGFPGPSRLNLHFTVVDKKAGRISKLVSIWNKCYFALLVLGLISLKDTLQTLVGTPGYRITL
eIF4H FP inh – human eIF4H binding inhibitors, primary screen, translation initiation inhibitor project, biochemical, uHTS, fluorescence polarization | 290,000 tested, 0.94% active | eIF4H fluorescence polarization binding assay | AID 2012, 2009 | Eukaryotic translation initiation factor 4H (Homo sapiens), Q15056 | inhibition, % at 35 µM;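 active means 50% or more with normal probe brightness, or confirmed in later tests; about a fifth of its hits are not listed in these tables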;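 further: calls also rest on retests at 20 µM and on dose response follow-up; 0% = protein and probe with vehicle and 100% = probe without protein; strong numbers were not always called active; many hits fall short of the cut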
PABP FP inh – PABP poly(A) RNA binding inhibitors, primary screen, biochemical, fluorescence polarization, uHTS. Polyadenylate-binding protein 1 (Homo sapiens), P11940. inhibition, % at 35 µM. 290,000 tested, 1% active. AID 2014, 2009;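 active means 50% or more with normal probe brightness, or confirmed in later tests; about a fifth of its hits are not listed in these tables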;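 further: calls also rest on retests at 20 µM and on dose response follow-up; controls were probe without protein and protein plus probe with vehicle; some compounds called inactive have numbers as strong as hits; many hits fall short of the cut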
Target sequence (P11940 whole entry, looked up): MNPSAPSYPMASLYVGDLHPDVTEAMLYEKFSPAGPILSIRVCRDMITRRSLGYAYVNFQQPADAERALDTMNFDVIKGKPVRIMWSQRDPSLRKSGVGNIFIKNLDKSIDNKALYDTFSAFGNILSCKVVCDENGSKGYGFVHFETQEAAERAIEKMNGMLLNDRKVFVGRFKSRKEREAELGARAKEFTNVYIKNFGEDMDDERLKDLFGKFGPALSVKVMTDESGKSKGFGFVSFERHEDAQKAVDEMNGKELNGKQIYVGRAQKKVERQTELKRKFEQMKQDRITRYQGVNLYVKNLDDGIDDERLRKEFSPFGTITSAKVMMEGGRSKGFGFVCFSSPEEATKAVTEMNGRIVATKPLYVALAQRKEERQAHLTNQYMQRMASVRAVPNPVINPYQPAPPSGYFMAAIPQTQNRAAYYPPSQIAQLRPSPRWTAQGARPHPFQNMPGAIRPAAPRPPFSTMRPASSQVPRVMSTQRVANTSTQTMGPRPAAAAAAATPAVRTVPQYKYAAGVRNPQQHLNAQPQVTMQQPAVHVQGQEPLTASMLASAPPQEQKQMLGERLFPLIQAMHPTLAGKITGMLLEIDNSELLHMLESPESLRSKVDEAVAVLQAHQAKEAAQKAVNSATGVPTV
MT1-MMP act inh – blockers of MT1-MMP proenzyme processing, primary screen, HT1080 RFP-PRO-GFP cells, GFP/RFP fluorescence; Matrix metalloproteinase-14 (Homo sapiens), P50281; GFP/RFP ratio fluorescence, overnight; percent of plate control window, DMSO zero; GFP/RFP ratio change, % at 20 µM; 360,000 tested, 0.061% active;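 active means GFP/RFP ratio change of at least 30% with cell ATP level not reduced by more than half and red fluorescence within 50% of control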; further: strong numbers were not always called active
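Compound: 20 µM single dose, 1% DMSO / System: HT1080 RFP-PRO-GFP cells / Controls: DMSO and RFP-L50D-GFP cell wells / Read-out basis: GFP/RFP fluorescence ratio / Schedule: overnight compound exposure at 37 °C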
Yeast UUG start – modulators of yeast start codon fidelity, primary screen, whole organism, S. cerevisiae, single point, plate reader; S. cerevisiae UUG-firefly luciferase reporter, luminescence/redox ratio; activity score, % at 18.7 µM; 350,000 tested, 0.13% active;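 active means replicate mean at a twofold rise or more, about +100% in these data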;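 further: firefly luciferase made from a UUG start codon reports start codon fidelity; reporter light over untreated wells divided by growth signal over untreated wells; some hits fall short of that in this replicate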
eIF4H FP inh retest – further read-out of eIF4H FP inh, marked with its call; inhibition, %; compound at 20 µM; confirmation average;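 mean of two retest wells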
PABP FP inh retest – also measured in PABP FP inh; calls as there; inhibition, %; compound at 20 µM; confirmation repeats;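 mean of two retest wells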
MT1-MMP act inh RFP – recorded beside MT1-MMP act inh, whose call it bears; RFP signal change, %; measured here: RFP expression control read;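 0 = vehicle wells; hits needed this value within 50% of zero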
Starred values were filed as active, the others as inactive; i = inactive; . = no result given; & = joins results of further samples; [ ] = remark or other dose.

SMILES	CSC inhib	Env fusion inh	Rce1 inhib	eIF4H FP inh	PABP FP inh	MT1-MMP act inh	MT1-MMP act inh RFP	Yeast UUG start	others
CN1CCN(c2ccccc2NC(=O)c2ccc3c(c2)OCCO3)CC1	-0.8	3.1	i	-3.6	3.4	0.2	2.1	-2.4
N#Cc1nc(Cc2cccc3ccccc23)oc1NCC1CCCO1 (stereo not drawn)	.	13.6	i	3.9	14.3	-4.4	0.6	10.0
S=c1[nH]nc(-c2c[nH]c3ccccc23)o1	-0.1	-0.9	i	-9.6	-5.5	-3.8	2.4	-14.0
COCCN(CCOC)c1ncnc2c1cnn2-c1ccccc1	-13.7	-6.6	i	-10.7	1.0	-0.9	2.2	-9.0
Cc1cccc(N(C(=O)Cn2nnc3ccccc32)C(C(=O)NC(C)(C)C)c2ccsc2)c1 (stereo not drawn)	-4.0	.	i	-8.7	1.6	-3.1	0.1	4.1
Cc1cc(C)cc(-n2c(C)cc(/C=N/NC(=O)CSc3ncccn3)c2C)c1	-8.5	-114.1	i	-16.6	-11.6	-3.4	-2.4	-14.0
CCOC(=O)CC[C@H](NC(=O)Cn1cnc2c(OCc3ccccc3)ncnc21)C(=O)OCC	-3.3	-8.2	.	.	.	-0.1	2.9	-16.8
CSc1ccccc1-c1nnc(NC(=O)Cc2ccccc2)o1	1.9	8.9	i	.	.	5.4	1.5	-17.4
Cc1n[nH]c(=O)nc1Nc1ccc(O)cc1	-6.5	.	i	4.2	8.0	3.1	4.1	-13.4
O=C(NC1=NCCS1)C1CCN(S(=O)(=O)c2cc([N+](=O)[O-])ccc2Cl)CC1	43.0	9.2	.	.	.	4.5	-4.0	2.6
Cc1cc(OCC(=O)Nc2ccccc2N2CCCC2)ccc1C(C)C	-2.7	38.2	i	.	.	-7.8	-7.3	8.2
CCC(NC(=S)NC1CCCCC1)c1ccc(C)cc1 (stereo not drawn)	-7.6	.	i	-4.3	-12.5	1.9	-8.2	-36.4
CCOC(=O)C1=C2c3ccc4ccccc4c3CC(C)(C)N2C(=O)C1=O	-0.7	9.8	i	-4.8	-16.3	-1.6	-0.2	1.2
Cc1ccc(Sc2cc(C(F)(F)F)nc(N(C)C)n2)cc1	-1.7	-16.9	.	-11.4	-14.6	2.6	0.3	-14.3
Cc1cccc(-c2cc(C(=O)Nc3ccc4c(c3)OCCO4)c3ccccc3n2)c1	-5.9	.	i	-1.3	-4.9	-1.2	-3.8	-9.0
O=c1oc2c(CN3CCOCC3)c(O)c(Cl)cc2c2c1CCCC2	8.7	.	i	5.2	39.3	-1.1	2.7	-0.1
NC(=O)c1cc(-c2ccccc2)nc(N2CCOCC2)n1	-7.5	.	i	-6.7	-4.4	-5.6	0.1	-5.7
COc1ccc(-c2ccc(CN3C(C(C)C)C(=O)N(Cc4cn(CC5CCCCC5)nn4)CCS3(=O)=O)cc2)cc1 (stereo not drawn)	.	-8.0	.	.	.	-7.2	-14.2	2.7
C=CCN(CC(=O)NC1CC1)S(=O)(=O)c1cccc(C(F)(F)F)c1	-8.7	17.5	.	.	.	2.8	5.5	3.3
CC1=C(C(=O)OCc2ccccc2)C(c2ccc(C(F)(F)F)cc2)NC(=O)N1CCCCCC(=O)O (stereo not drawn)	2.4	19.2	i	-4.5	1.0	10.0	-3.3	0.3
CCOC(=O)C1=C(C)Nc2nc(SCC)[nH]c(=O)c2C1c1ccncc1 (stereo not drawn)	6.8	-54.2	i	-4.1	-7.8	-5.3	-4.6	-9.6
COc1cccc(Nc2nnc(SCC3CCCCO3)s2)c1 (stereo not drawn)	-9.0	-21.4	i	-1.7	22.6	-2.8	-1.9	.
Cc1ccsc1-c1nc(CN2CCN(C)C(=O)[C@@H]2C)c(C)o1	-6.2	-0.1	i	-3.5	-2.8	-4.8	-1.0	.
CCC(C)NC(=O)C1CCC(=O)N1Cc1ccc(C)cc1 (stereo not drawn)	15.1	.	i	1.4	0.5	1.7	0.4	-10.4
N#Cc1ccc(S(=O)(=O)N2CCC(N3CCCCC3)CC2)cc1	-6.7	-32.3	i	-5.1	9.9	0.0	5.0	-25.1

Looked up by compound from above (3):
SMILES	CSC inhib	Env fusion inh	Rce1 inhib	eIF4H FP inh	PABP FP inh	MT1-MMP act inh	MT1-MMP act inh RFP	Yeast UUG start	others
S=c1[nH]nc(-c2c[nH]c3ccccc23)o1	-0.1	-0.9	i	-9.6	-5.5	-3.8	2.4	-14.0
Cc1cccc(N(C(=O)Cn2nnc3ccccc32)C(C(=O)NC(C)(C)C)c2ccsc2)c1 (stereo not drawn)	-4.0	.	i	-8.7	1.6	-3.1	0.1	4.1
CSc1ccccc1-c1nnc(NC(=O)Cc2ccccc2)o1	1.9	8.9	i	.	.	5.4	1.5	-17.4

Further structures:
SMILES	CSC inhib	Env fusion inh	Rce1 inhib	eIF4H FP inh	PABP FP inh	MT1-MMP act inh	MT1-MMP act inh RFP	Yeast UUG start	others
O=C(N/N=C/c1cc(Br)c(O)c(Br)c1O)c1ccc2c(c1)OCCO2	50.2	0.6	i	54.0*	3.9	3.8	-8.0	-15.6	eIF4H FP inh retest=89.3*;PABP FP inh retest=15.6
Cc1ccc(S(=O)(=O)Nc2c(NC3CCCCC3)c3ccccc3oc2=O)c(C)c1	-20.8	.	i	-10.8	-4.0	-6.6	-5.8	7.6
COc1ccc(S(=O)(=O)Nc2ccc3c(c2)C(=O)N([C@H](C)CO)C[C@H](C)[C@H](CN(C)Cc2ccc(C(=O)O)cc2)O3)cc1	-4.6	6.9[16.7 µM]	.	.	.	8.5	1.9	0.7&2.4
Cc1ccc2nc(NCCCO)nc(-c3ccccc3)c2c1	10.9	-478.0	i	-7.9	-4.5	0.4	-5.9	5.3
CCOC(=O)c1c(C)c(C(=O)NCc2cccnc2)c(C)n1CC	-14.0	-52.8	i	7.6	8.8	1.3	-0.2	.
N#Cc1ccccc1OCC(O)CS(=O)(=O)c1ccccc1 (stereo not drawn)	-14.5	-3.6	i	3.0	2.9	0.6	4.4	-16.4
O=C(CCn1c(=O)c2cccn2c2ccc(F)cc21)NCCc1ccccc1	-9.6	9.9	i	-0.6	-4.3	0.6	-3.2	-18.3
Cn1cncc1C(=O)c1ccccc1	.	0.6	i	0.6	5.4	-0.4	-1.2	0.1
COCCCn1c(C)nc2c(c1=O)c1nc3ccccc3nc1n2CCc1ccccc1	-6.8	.	i	-6.7	0.9	-2.5	-4.7	-15.7
CCCN(CCC)S(=O)(=O)c1ccc(C(=O)NCc2ccco2)cc1	-2.7	-35.5	i	-5.6	-4.9	2.3	-2.0	-29.7
O=C(CSC(=S)N1CCCC1)c1ccccc1	-9.1	-46.9	i	-0.9	-1.7	1.1	0.0	-21.5
O=C(CN1C(=O)CSC1=O)NC1CCCCC1	.	-79.3	i	-1.3	-15.8	2.9	5.8	-1.0
Cc1ccc(Oc2ccc(-c3nc(N)nc(N)n3)cc2)cc1	-2.2	.	.	-2.3	-12.8	2.3	-8.4	-2.3
COc1ccc2c3c([nH]c2c1)C1CC2C(CC(O)C(OC)C2C(=O)O)CN1CC3 (stereo not drawn)	-2.4	.	i	43.9	28.4	-8.0	6.2	-8.9
CCCn1c(CN2CCN(C(=O)OCC)CC2)nc2cc(NC(=O)C(C)C)ccc21	29.5	1.1	i	2.0	-9.4	-4.1	-6.1	-17.3
Cc1c([N+](=O)[O-])cc(C(=O)Nc2ccc(Cc3ccncc3)cc2)cc1[N+](=O)[O-]	60.9	3.9	i	-2.2	3.4	-2.1	-3.6	.
NC(=O)c1cc(S(=O)(=O)N2CCN(c3cccc(Cl)c3)CC2)cs1	-2.1	-6.7	i	0.4	1.1	-0.5	-1.8	-8.3
CC(OC(=O)C1CCN(S(=O)(=O)c2ccc(Cl)cc2)CC1)C(=O)N1CCc2ccccc21 (stereo not drawn)	-0.6	.	i	2.1	-6.1	0.1	-12.5	-4.9
CCOC(=O)C1CCN(C(=O)c2cc(-c3ccncc3)nc3ccccc23)CC1	-13.1	3.9	.	.	.	3.1	1.0	-8.5
COc1ccc(CN(C)C(=O)[C@H]2O[C@@H](n3cnc4c(N)ncnc43)[C@H](O)[C@@H]2O)cc1OC	.	2.9	.	.	.	3.0	1.8	-0.9
CC(NC(=O)COc1cccc(Br)c1)C(=O)O (stereo not drawn)	-2.7	.	i	-4.5	-7.2	-0.1	4.0	.
C=C(C)Cn1c(C)cc(C)c(S(=O)(=O)c2ccccc2C)c1=O	-9.8	.	i	-19.0	-5.0	-1.1	-4.6	.
Cc1ccc(CNC(=O)CCS(=O)(=O)c2cccc3nsnc23)cc1	-13.3	-37.6	i	6.2	9.3	1.5	2.7	-12.6
Cc1ccc(CN2CCN(Cc3cn(C)nc3-c3ccccc3)CC2CCO)o1 (stereo not drawn)	-22.0	-65.4	i	-7.1	-8.3	2.2	0.5	.
Cc1ccsc1/C=N/NC(=O)c1ccc(Cn2cc(Br)cn2)o1	6.0	-19.7	i	1.9	-5.0	0.4	-5.5	.

New compounds follow
SMILES	CSC inhib	Env fusion inh	Rce1 inhib	eIF4H FP inh	PABP FP inh	MT1-MMP act inh	MT1-MMP act inh RFP	Yeast UUG start	others
C/C(O)=C\c1nc2ccccc2oc1=O	26.8	.	i	5.3	11.2	0.0	-1.2	-3.2
CC(=O)NCC(=O)NC1CCCc2c1cnn2-c1ccccc1F (stereo not drawn)	-1.3	-5.8	i	-0.4	6.9	-2.4	-5.1	-4.1
Cc1ccc(C(=O)NCC(=O)NCCSc2ccc(Br)cc2)cc1	-13.9	-0.6	i	.	.	0.3	4.8	.
CCCCNC(=O)C1CCN(c2nc(OC)nc(OC)n2)CC1	.	14.7	i	0.2	26.0	-0.6	0.3	-11.1
COCCCNc1nc2c(c(=O)n(Cc3ccc(F)cc3)c(=O)n2C)n1C	-4.2	29.1	i	-8.2	1.8	-1.0	-3.7	0.1
Cc1ccc(-c2csc(C(O)(c3ccccc3)C(F)(F)F)n2)cc1C (stereo not drawn)	.	5.8	.	.	.	1.3	-1.3	-4.6
CC(=O)Oc1ccc(C(=O)Nc2ccccc2C(=O)N2CCCCC2)cc1	-15.2	1.7	i	3.7	-6.2	1.7	4.6	-7.6
O=C(Nc1cccc(Cc2ccccc2)c1)Nc1ccc2nc([C@@H]3O[C@H](CO)[C@@H](O)[C@H](O)[C@H]3O)[nH]c2c1	.	-6.8	.	.	.	3.0	0.6	-15.0
COc1ccc(C(C(=O)NCc2ccccc2)N(C(=O)c2snc(C(N)=O)c2N)c2ccccc2OC)cc1 (stereo not drawn)	-24.1	-9.6	i	-4.8	-11.7	-4.9	-3.8	-6.8
Cc1nc(SCc2nc3c(F)cccc3[nH]2)c2oc3ccccc3c2n1	.	23.5	.	.	.	2.2	0.0	-37.0
COc1cccc(-c2ccc(CN3C(C(C)C)C(=O)N(Cc4cn(CCC5OCCO5)nn4)CCS3(=O)=O)cc2)c1OC (stereo not drawn)	.	-5.7	.	.	.	3.1	0.4	1.1
O=C(CSc1ccc(-c2cccc([N+](=O)[O-])c2)nn1)NC1CCCC1	.	6.7	i	91.4	-0.4	-0.9	-1.1	.	eIF4H FP inh retest=4.2;PABP FP inh retest=-2.8
COc1cccc(OC)c1C(=O)Nc1nnc(-c2ccc(F)cc2)s1	6.3	7.1	i	-0.9	8.9	-0.5	1.0	-8.3
COc1ccccc1C1CC(c2ccc(Cl)cc2)Nc2nc(N)nn21 (stereo not drawn)	.	1.3	i	-4.4	-7.7	0.9	-2.7	-8.9

Some of the compounds tested (hit frequency here may not be typical).
